Bioassay records (PubChem)
CBX7 AlphaScr = CBX7 inhibition, primary AlphaScreen; normalised signal (fraction of DMSO) (no concentration beside the values); O95931; 66,000 compounds, 1.1% hits; AlphaScreen His6-CBX7 / biotin-H3K27me3 peptide binding; hits give low values; in the data active means normalised signal below about 0.5;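 further: 100 nL library stock added to about 20 µL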
Target sequence (O95931 whole entry, looked up): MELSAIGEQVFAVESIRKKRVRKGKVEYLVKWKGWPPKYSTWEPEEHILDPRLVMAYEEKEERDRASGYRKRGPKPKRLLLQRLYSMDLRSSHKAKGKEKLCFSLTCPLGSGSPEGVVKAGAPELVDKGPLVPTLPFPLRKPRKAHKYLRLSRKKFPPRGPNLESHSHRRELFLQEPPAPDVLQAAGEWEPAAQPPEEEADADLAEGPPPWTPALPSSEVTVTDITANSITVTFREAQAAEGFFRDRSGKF
CBX7 AlphaScr z-score = further read-out of CBX7 AlphaScr, marked with its call; z-score; measured here: z-score of CBX7 signal; some inactives read as strong as hits; reference of the scale not given here;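 same signal on another scale; lower means less binding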
* = called active by the depositor; & = joins results of further samples.

Start of the data: the first 7 records, ahead of the listing:
Each structure is followed by: CBX7 AlphaScr, CBX7 AlphaScr z-score
Cc1ccc(N(CC(=O)NCc2ccncc2)S(=O)(=O)c2ccccc2)c(C)c1
  1.05, 0.0509
COCCN1Cc2cccc(C(=O)Nc3c(C)cccc3C)c2C1=O
  1.1, 1.18
Cc1ccc(OCC(=O)NCc2cc(-c3nn(C)c(=O)c4ccccc34)ccc2C)cc1
  1.1, 2.42
O=C(O)c1ccc2noc(-c3ccccc3)c2c1
  0.902, -1.26
Cc1cc(C)c(S(=O)(=O)Nc2ccc3oc4c(c3c2)CC(C)CC4)c(C)c1 (stereo not drawn)
  0.785, -2.71
Cc1ccc2oc(-c3cccc(NC(=O)c4cncc(Br)c4)c3)nc2c1
  1.09, 1.02
Cc1c2c(c(C)n1C)C(C(=O)NC1CCCCC1)N(c1ccc(Cl)cc1)C2=O (stereo not drawn)
  0.857, -1.64

Results, from the start:
Each structure is followed by: CBX7 AlphaScr, CBX7 AlphaScr z-score
Cc1ccc(N(CC(=O)NCc2ccncc2)S(=O)(=O)c2ccccc2)c(C)c1
  1.05, 0.0509
COCCN1Cc2cccc(C(=O)Nc3c(C)cccc3C)c2C1=O
  1.1, 1.18
Cc1ccc(OCC(=O)NCc2cc(-c3nn(C)c(=O)c4ccccc34)ccc2C)cc1
  1.1, 2.42
O=C(O)c1ccc2noc(-c3ccccc3)c2c1
  0.902, -1.26
Cc1cc(C)c(S(=O)(=O)Nc2ccc3oc4c(c3c2)CC(C)CC4)c(C)c1 (stereo not drawn)
  0.785, -2.71
Cc1ccc2oc(-c3cccc(NC(=O)c4cncc(Br)c4)c3)nc2c1
  1.09, 1.02
Cc1c2c(c(C)n1C)C(C(=O)NC1CCCCC1)N(c1ccc(Cl)cc1)C2=O (stereo not drawn)
  0.857, -1.64
CCN(CC)CCNC(=O)CS(=O)(=O)Cc1nc(-c2ccccc2C)oc1C
  0.973, -0.512
O=C(CC1C(=O)N(c2ccc(F)cc2)C(=O)N1CCc1ccc(Cl)cc1)Nc1ccccc1 (stereo not drawn)
  0.955, -0.879
COc1cc(OC)cc(C(=O)N2CC(=O)Nc3ccc(Br)cc3C2c2ccc(F)cc2)c1 (stereo not drawn)
  0.976, -0.596
CC(C)c1ccc(-c2csc(Nc3ccc(S(N)(=O)=O)cc3)n2)cc1
  0.798, -2.01
O=C(CSc1nccn1-c1ccc(F)cc1)NCc1ccccc1
  1.06, 1.13
O=C(CSc1ccccn1)Nc1ccc(-c2ccc(NC(=O)CSc3ccccn3)cc2)cc1
  1.06, 2.13
Cc1nonc1NC(=O)CCN1CCCCCC1
  0.951&1.03, -1.31&0.737
CN(Cc1ccccc1)S(=O)(=O)c1ccc(C(=O)Nc2cccc(-c3nc4ccccc4[nH]3)c2)cc1
  0.917, -2.68

3 entries out of the list, ordered by length of the SMILES, highest first.
Each structure is followed by: CBX7 AlphaScr, CBX7 AlphaScr z-score
COc1cc(OC)cc(C(=O)N2CC(=O)Nc3ccc(Br)cc3C2c2ccc(F)cc2)c1 (stereo not drawn)
  0.976, -0.596
O=C(CSc1ccccn1)Nc1ccc(-c2ccc(NC(=O)CSc3ccccn3)cc2)cc1
  1.06, 2.13
COCCN1Cc2cccc(C(=O)Nc3c(C)cccc3C)c2C1=O
  1.1, 1.18

New compounds follow:
Each structure is followed by: CBX7 AlphaScr, CBX7 AlphaScr z-score
COc1ccc(OC)c(NC(=O)CSc2nnc(CNC(=O)c3c(F)cccc3Cl)o2)c1
  0.912, -1.45
CCOC(=O)Cn1nc(C(F)(F)F)cc1C
  1.12, 0.793
O=C(CSc1nnc(Cc2cc(=O)[nH]c(=O)[nH]2)n1-c1ccc(F)cc1)NC1CCCC1
  1.02, 0.471
Cc1ccc(-c2cc(C(F)F)n3ncc(C(=O)NCC4CCCO4)c3n2)cc1 (stereo not drawn)
  1.06, 1.56
CCc1ccc(-c2nc(CN3CCC(C(=O)N4CCN(c5ncccn5)CC4)CC3)c(C)o2)cc1
  0.92, -0.64
CC(C)N(CCCNC(=O)CN1C(=O)CCSc2ccccc21)Cc1ccccc1
  1.05, 2.33
CN(CCNC(=O)c1cc2c(s1)-c1ccccc1OC2)C1CCCCC1
  1.7, 9.85
COc1cc2c(c(OC)c1)C(c1c(F)cccc1Cl)CC(=O)N2 (stereo not drawn)
  1.03, 0.377
CCCCc1ccc(-c2nc(Nc3ccc(OC(F)(F)F)cc3)c3ccccc3n2)cc1
  1.18, 4.87
O=C(Cn1nc(Cc2ccncc2)c2ccccc2c1=O)N1CCCCCC1
  1.03, 0.867
CCOC(=O)N1CCC(Nc2c(NCc3ccc(OC)cc3)c(=O)c2=O)CC1
  1.04, 0.419
Cc1ccc(OCCCCSc2nc3ccc(C)cc3[nH]2)cc1
  1.09, 3.58
COc1ccc(C2C(C(=O)N3CC(C)CC(C)C3)c3ccccc3C(=O)N2C)cc1OC (stereo not drawn)
  1.02, 0.237
Cc1nnc(NC(=O)NC(C)N2C(=O)C3C4C=CC(C4)C3C2=O)s1 (stereo not drawn)
  1.04, 1.35
CCN(c1ccccc1)S(=O)(=O)c1ccc2c(c1)CC(C)N2C(C)=O (stereo not drawn)
  1.06, 1.88
COc1ccc(C)cc1NC(=O)Cn1ncc2c1-c1cc(C)ccc1OC2
  1.04, 1.09
CC(C)(C)C1CCc2oc3ccc(NS(=O)(=O)c4ccccc4)cc3c2C1 (stereo not drawn)
  0.734, -7.41
COc1ccc(NS(=O)(=O)c2ccc3[nH]cc(C(=O)O)c(=O)c3c2)cc1
  0.531, -6.27
CCC(C(=O)N1CCOCC1)n1c(SCc2ccccc2F)nc2ccncc21 (stereo not drawn)
  1.04, 1.21
COc1cc(C)nc(Nc2nc(C)c3cc(C)ccc3n2)n1
  0.991, -0.104
CCN(CCNC(=O)CCn1nc(-c2ccc(Cl)cc2)ccc1=O)c1ccccc1
  0.731, -5.05
CCCCc1c2c(nn1-c1ccccc1F)CC(c1ccccc1)CC2=O (stereo not drawn)
  1.03, 0.299
COc1ccc(NC(=O)C2CCN(c3cc(C)nc4c(-c5ccc(Cl)cc5)c(C)nn34)CC2)cc1
  1.03, 1.2
COc1ccc(-c2cc(CCCC(=O)Nc3ccc(C)c(C)c3)no2)cc1
  1.05, 1.84
CCC1Oc2ccc(C)cc2N(CC(=O)NCc2ccc(OC)cc2)C1=O (stereo not drawn)
  1.13, 1.7
Cc1cc2nc(-c3cc(NC(=O)c4cc5ccccc5o4)ccc3Cl)oc2cc1C
  1.04, 1.13
O=C(C1CCN(c2nnc(-n3cccc3)s2)CC1)N1CCC2(CC1)OCCO2
  1.02, 0.724
COc1ccc(C2c3[nH]c4ccccc4c3CCN2C(=O)c2ccc(Cl)c(Cl)c2)cc1 (stereo not drawn)
  0.754, -4.38
COc1cccc(/C=C/c2nc3ccccc3c(=O)n2-c2cc(C)cc(C)c2)c1OC
  1.02, 1.07
CCC1CCCCN1CCCNC(=O)c1c[nH]n2c(=O)c(Cc3ccccc3F)c(C)nc12 (stereo not drawn)
  0.939, -0.081
Clc1ccc(Nc2ccc3ccccc3n2)cc1
  1.18, 5.12
CCOC(=O)Cn1c(CN2CCN(c3ccc(OC)cc3)CC2)nc2c1c(=O)[nH]c(=O)n2C
  1.03, 0.963
COC(CNC(=O)c1c[nH]c2ccc(S(=O)(=O)N(C)c3cc(C)ccc3C)cc2c1=O)OC
  1.14, 1.28
COc1cccc(NC(=O)Cn2cc(S(=O)(=O)c3ccc(F)cc3)c(=O)c3cc(OC)ccc32)c1
  0.98, -0.648
FC(F)(F)c1cc(-c2cccs2)nc2ncnn12
  1.01, 0.393
Cc1nnn(C23CC4CC(CC(CC(=O)Nc5ccc(F)cc5)(C4)C2)C3)n1
  1.03, 0.781
CC(NC(=O)CCc1nc(-c2ccccc2F)no1)c1ccc2c(c1)OCCO2 (stereo not drawn)
  0.921, -1.22
CCOC(=O)N1CCC(Nc2c(N3CCCCC3CC)c(=O)c2=O)CC1 (stereo not drawn)
  0.979, -0.254
NC(=O)c1nn(-c2ccccc2)nc1N
  0.983, -0.168
CCCCCOc1ccc(NC(=O)c2cccc(C(=O)OC)n2)cc1
  0.997, -0.0649
COc1ccc(-c2nc(-c3ccc(Br)cc3)no2)cc1OC
  1.04, 0.943
CCC(Cc1ccccc1)NS(=O)(=O)c1ccc2c(c1)CCN2C(=O)C1CCC1 (stereo not drawn)
  0.975, -0.856
Cc1nn(Cc2ccc(Cl)cc2)c(C)c1NC(=O)c1noc2c1CCCCC2
  0.974, -0.591
O=C(c1n[nH]c(=O)c2ccccc12)N1CCCCCC1
  1.02, 0.353
CCc1ccc2[nH]cc(S(=O)(=O)c3ccc(Cl)cc3)c(=O)c2c1
  1.02, 1
Cc1cc(C(=O)NCc2cccnc2)n(-c2ccccc2)n1
  0.989, -0.277
Fc1cc(F)c(F)c(OCc2nc(-c3cccs3)no2)c1F
  1.19, 8.93
Cc1ccc(NC(=O)CCn2nc(-c3ccc(Cl)cc3)c3ccccc3c2=O)c(C)c1
  0.981, -0.54
Nc1ccc2oc(-c3cccc(F)c3)nc2c1
  1.11, 1.75
Cc1ccc2nc(-c3cccnc3)c(Nc3ccc(C(C)C)cc3)n2c1
  0.947, -0.0717
COc1ccc(-c2nnc(-c3ccncc3)o2)cc1OC
  0.962, -0.528
COc1ccc(-n2nc(C(=O)NCC(=O)Nc3ccc(F)cc3)c3ccccc3c2=O)cc1OC
  0.906, -1.63
CCOCCCNC(=O)C1CCN(Cc2nc(-c3ccc(CC)cc3)oc2C)CC1
  1.07, 0.102
Cn1c(C(=O)N2CCC(C(=O)NCCN3CCCCCC3)CC2)cc2sccc21
  1.01, 0.161
CCCCCCCCCCCCCCCCCCNC(=O)c1c(-c2ccccc2)noc1C
  1.28, 9.68
CC(=O)N1c2ccc(S(=O)(=O)NCCCN3CCOCC3)cc2CC1C (stereo not drawn)
  0.868, -0.531
CCn1c(SCC(=O)Nc2nc(C)cs2)nnc1-c1c[nH]c2ccccc12
  1.16, 1.01
Cc1ccc(N2CCN(S(=O)(=O)c3cnc[nH]3)CC2C)cc1 (stereo not drawn)
  0.925, -0.968
O=C(Cc1coc(-c2ccc(F)cc2)n1)Nc1ccccc1
  1.06, 0.431
CCOc1ccc(CNC(=O)CCc2cn(C)c3ccccc23)cc1
  1.01, 0.474

Later entries.
Each structure is followed by: CBX7 AlphaScr, CBX7 AlphaScr z-score
O=C(NCc1ccccn1)C1CCN(c2nnc(-n3cccc3)s2)CC1
  0.737, -4.31
CCCN(CCC)CCCNC(=O)c1sc2ncn(CC(=O)N3CCCCC3C)c(=O)c2c1C (stereo not drawn)
  1.01, 0.224
COC(=O)c1ccc(Nc2nnc(-c3ccc(C)c(S(=O)(=O)NCCO)c3)c3ccccc23)cc1
  0.966, -0.363
Cc1ccc2c(c1)-c1c(cnn1CC(=O)Nc1cccc(C(F)(F)F)c1)CO2
  1, 0.115
Cc1ccc(C(C)C)c(OCc2nnc(NC(=O)c3ccc(Br)cc3)s2)c1
  1.06, 0.262
CCN(Cc1ccccc1)C(=O)c1ccc(CNc2c(N3CCOCC3)c(=O)c2=O)cc1
  1.3, 1.77
CC(C)(C)NC(=O)COc1ccc(CNc2ccc3[nH]c(=O)[nH]c3c2)cc1
  1.01, 0.0601
O=C(NCc1ccc(F)cc1Cl)C1CC(=O)N(C2CCCCCCC2)C1 (stereo not drawn)
  1, 0.0162
CCCN(CCC)CCCNC(=O)Cn1ncc2c1-c1ccccc1OC2
  1.04, 1.17
CCOc1cc(OCC)cc(C(=O)Nc2ccc(-c3nc4ccccc4s3)c(O)c2)c1
  1.14, 2.29
CCCCn1c(C(C)NC(C)=O)nc2ccccc21 (stereo not drawn)
  1.19, 1.91
Cc1ccccc1-n1nc2c(c1NC(=O)c1cc(Br)ccc1Cl)CSC2
  1.06, 1.48
COc1ccc(CCNC(=O)CCN2C(=O)COc3ccccc32)cc1OC
  0.998, -0.0599
CCc1ccc(Cc2nc3cc(C(=O)O)ccc3[nH]c2=O)cc1
  0.881, -3.22
COc1ccc(-c2cc(C(=O)Nc3cc(C(F)(F)F)ccc3Cl)no2)cc1OC
  1.25, 1.96
Cc1cc(N2CCOCC2)nc2ccc(NC(=O)C3CC3)cc12
  1.09, 0.58
CCN(CC)S(=O)(=O)c1ccc2[nH]cc(C(=O)NCCc3ccc(OC)c(OC)c3)c(=O)c2c1
  1.12, 1.76
O=C(CN1CCN(Cc2cccc(Cl)c2)C1=O)NCc1ccccc1
  1.05, 0.628
Cc1cccc2c1-c1sc(C(=O)N3CCN(c4ccccc4)CC3)cc1CO2
  1.03, 1.09
CCC1CCCCN1CCCNC(=O)Cn1nc(-c2ccccc2)ccc1=O (stereo not drawn)
  1.06, 1.86
Cc1nc2cc(-c3ccccc3)nn2c(C)c1CCC(=O)NCCc1ccccc1
  0.981, -0.319
CCOCCCNC(=O)c1ccc2nc(N3CCC(C)CC3)sc2c1
  0.997, -0.0676
COc1ccccc1Nc1ncc(C(=O)NCCC(C)C)c2ccccc12
  1.17, 7.05
Cc1cc(NC(=O)CSc2nnc(CNC(=O)COc3ccc(Cl)cc3)o2)no1
  0.207*, -12.2*
COc1ccccc1CNC(=O)c1cc2sccc2n1Cc1ccc(Cl)cc1
  1.02, 0.443
Cc1ncc(-c2c(-c3ccc(O)cc3O)n[nH]c2C(F)(F)F)s1
  1.04, 0.883
O=c1c(S(=O)(=O)c2ccc(Cl)cc2)c[nH]c2ccccc12
  1.12, 1.74
CCN1CCN(c2ncc(C(=O)NCCOC)c3ccccc23)CC1
  1.57, 1.16
CCCCNC(=O)Cn1c(=O)n(C)c2ccccc21
  1.05, 0.896
O=C(N1CCN(C(c2ccccc2)c2ccc(Cl)cc2)CC1)C1(S(=O)(=O)c2ccc(Cl)cc2)CC1 (stereo not drawn)
  0.876, -2.15
Cc1ccc(-c2noc(CCC(=O)N3CCN(c4ccc(Cl)cc4)CC3)n2)cc1
  1.02, 0.632
O=C1CCc2cc(S(=O)(=O)N3CCC(C(=O)NCc4ccccc4Cl)CC3)ccc2N1
  0.914, -1.46
Cc1cc(N2CCN(c3cccc(C(F)(F)F)c3)CC2)nc2cc(O)ccc12
  0.955, -1.8
Cn1cc(CCCC(=O)NCCc2ccccc2)c2ccccc21
  0.858, -1.11

Only part of the results is shown, so the mix of outcomes need not match the whole.
